2A StopGo: FMDV 2A StopGo reporter, luciferase signal; human cells with a luciferase reporter of 2A StopGo recoding; control for the full effect not named in the record; Potency, µM (titrated, usually from 57.9 µM), for the others: at the highest dose signal change, negative = less light; 1.2% of 410,000 active; AID 1159524; active = well fitted falling curve with a large enough effect; inconclusive = small, poorly fitted or top-dose-only effect; inactive = no such curve, though single readings can be large or run the other way; tested in HEK293T cells; also: % is scaled to controls: 0 for no effect and ±100 for the full control effect; nearly all actives have a fitted effect of over 45% in size; luciferase light after 4 h
Cruzain Triton: inhibitors of Trypanosoma cruzi cruzain with detergent; AID 1478; purified cruzain, Z-FR-AMC fluorescence, 0.01% Triton; Potency, µM, inactives show max response, negative = inhibition, actives largely listed as inhibitors; P25779; 0.43% of 200,000 active;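 also: plate controls were neutral wells for no effect and buffer without enzyme for full effect; nearly all actives have a fitted effect of over 40% in size; top concentration of the series not given in the record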
Target sequence (P25779 123-467 limits assumed): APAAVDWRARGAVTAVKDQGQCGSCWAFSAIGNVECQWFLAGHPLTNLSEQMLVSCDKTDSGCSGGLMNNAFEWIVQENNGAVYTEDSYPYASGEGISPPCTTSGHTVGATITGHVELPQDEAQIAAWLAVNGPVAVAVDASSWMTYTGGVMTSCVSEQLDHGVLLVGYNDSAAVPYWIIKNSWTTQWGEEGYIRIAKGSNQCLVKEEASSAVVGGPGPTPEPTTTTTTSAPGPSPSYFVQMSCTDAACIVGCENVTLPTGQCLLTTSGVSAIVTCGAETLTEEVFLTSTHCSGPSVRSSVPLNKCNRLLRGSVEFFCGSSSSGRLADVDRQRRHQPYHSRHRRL
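Compounds were screened in titration against cruzain (1.5 nM) with 0.01% Triton X-100 to counter colloidal aggregation. Activity was the AMC fluorescence increase over 60 s after adding 2 uM Z-FR-AMC at pH 5.5.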
Cruzain inh noDet: cruzain (T. cruzi) inhibition without detergent | P25779 | purified cruzain, Z-FR-AMC fluorescence, no detergent | Potency, µM, for inactives: max response, negative = inhibition, usual class: inhibitors | 2.3% of 200,000 active;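 also: plate controls were enzyme without inhibitor for no effect and buffer without enzyme for full effect; nearly all actives have a fitted effect of over 40% in size; top concentration of the series not given in the record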
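Detergent-free condition (0.00005% Triton X-100) in acetate buffer pH 5.5 with DTT. 1.5 nM enzyme and compound were pre-mixed 15 min, then 2 uM Z-FR-AMC substrate added; reaction progress from fluorescence change between first and third reads (60 s).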
Marburg entry inh: Marburg virus entry inhibition; Marburg virus pseudotyped entry inhibition, cell reporter; control for the full effect not named in the record; about a third of the inactives were read at about 46 µM; Potency, µM (highest dose often 37.8 µM), inactives show at the highest dose activity change, negative = inhibition, hits mostly inhibitors; 1.8% of 300,000 active; active = well fitted inhibition curve with a large enough effect; inconclusive = small, poorly fitted or top-dose-only effect, or effect the other way; inactive = flat fitted curve, though single readings scatter; tested in HEK293 cells; about a fifth of its hits are not listed in these tables; also: % is scaled to controls: 0 for no effect and ±100 for the full control effect; luciferase read-out
NS1 function inh: inhibitors of influenza NS1 protein function; S. cerevisiae slowed by influenza A NS1, growth recovery by OD600; Potency, µM (titrated, usually from 46.1 µM), without a hit: at the top dose activity, positive = more growth; 0.4% of 270,000 active; AID 2326; active means well fitted rising curve with a large enough effect; inconclusive means small, poorly fitted or top-dose-only effect; inactive means no such curve, though single readings can be large or run the other way; also: nearly all actives have a fitted effect of over 50% in size
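S. cerevisiae expressing influenza A NS1, grown in glucose, washed, then diluted 1:100 into pH 6.0 -URA galactose medium with 23 nl compound. Growth recovery read as OD600; NS1-free strain serves as control.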
LASV entry inh: Lassa virus entry inhibition. Lassa virus pseudotype entry inhibition, cell reporter; control for the full effect not named in the record. Potency, µM (titrated, usually from 37.9 µM), for inactives: top-dose activity change, negative = inhibition, hits mostly inhibitors. 1.2% of 300,000 active; active means well fitted inhibition curve with a large enough effect; inconclusive means small, poorly fitted or top-dose-only effect, or effect the other way; inactive means flat fitted curve, though single readings scatter; tested in HEK293 cells; also: % is scaled to controls: 0 for no effect and ±100 for the full control effect; nearly all actives have a fitted effect of over 50% in size; luciferase read-out
SARS PLpro yeast: SARS-CoV PLP inhibition in yeast; S. cerevisiae expressing SARS-CoV PLpro, growth rescue; control for the full effect not named in the record; AID 485353; 0.19% of 330,000 active; Potency, µM (series often up to 32.9 µM), inactives show at the highest dose activity, positive = growth rescue; active means well fitted rising curve with a large enough effect; inconclusive means small, poorly fitted or top-dose-only effect; inactive means no such curve, though single readings can be large or run the other way; also: 0% is about no effect; nearly all actives have a fitted effect of over 55% in size; growth read by luminescence after 48 h
RE007 growth inh: less growth of the S. pombe RE007 Vpr strain; S. pombe RE007 Vpr strain, BacTiter-Glo ATP luminescence, 24 h; control for the full effect not named in the record; Potency, µM (series often up to 92.2 µM), inactives show at the highest dose activity change, negative = less growth; 0.21% of 360,000 active; active = well fitted falling curve with a large enough effect; inconclusive = small, poorly fitted or top-dose-only effect; inactive = no such curve, though single readings can be large or run the other way;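 also: % is scaled to controls: 0 for no effect and ±100 for the full control effect; nearly all actives have a fitted effect of over 50% in size; the assay follows cell death caused by Vpr and the record does not say whether a fall means rescue or toxicity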
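Fission yeast strain RE007, carrying one chromosomally integrated HIV-1 vpr copy, was seeded at OD 0.01 in PMG+AL medium with 23 nL pinned compound. After 24 h at 30 °C and 99% humidity, viability was read by BacTiter-Glo luminescence.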
The depositor's hits bear a star; ? = inconclusive; . = not tested or not shown; & = joins results of further samples; [ ] = another dose, or the depositor's remark. Unless noted, calls follow the shape of the dose curve; as a rule, active = well fitted curve in the direction sought with a large enough effect; inconclusive = small, poorly fitted or top-dose-only effect, or another doubt; inactive = no such curve, though single readings can be large; an effect the other way counts as inactive or inconclusive. Potency is read from the fitted curve at half-maximal effect.

Below each compound: 2A StopGo	Cruzain Triton	Cruzain inh noDet	Marburg entry inh	NS1 function inh	LASV entry inh	SARS PLpro yeast	RE007 growth inh
COc1cc(OC)nc(N/N=C(\c2ccccc2)c2ccncc2)n1
→ -25%	-3.0%	-16%	?	1%	1%	21%	8%
Cc1ccc(NC2CCCN(C(=O)c3cccnc3)C2)cc1C (stereo not given)
→ -11%	.	.	9%[46.1 µM]	6%	-1%[46.1 µM]	0%	-13%
CC1CCCN(CCCNC(=O)C2CCCN(c3ncnc4c3nc3n4CCCCC3)C2)C1 (stereo not given)
→ 0%	.	.	?	0%	18%[46.1 µM]	-2%	-2%
CCNC(=S)NC1CC2CCC(C1)N2Cc1ccccc1 (stereo not given)
→ .	1.7%	-1%	0.92µM*	-9%	0%	6%	0%
Cc1c(CN2CCc3c([nH]c4ccccc34)C2C2CCCCC2)cnn1C (stereo not given)
→ ?	.	.	?	2%	?	2%	-23%
Cc1cc(C)cc(NC(=O)CN2C(=O)CCc3cc(S(=O)(=O)N4CCCCC4)ccc32)c1
→ 0%	-4.8%	6%	.	.	1%[46.1 µM]	.	.
O=C(NCCOc1ccccc1)c1ccccc1Cl
→ 5%	.	.	?	-2%	?	0%	24%
O=C(COC(=O)C1(c2ccc(F)cc2)CCCC1)NCc1ccco1
→ -29%	.	.	-24%[46.1 µM]	.	-5%	1%	4%
O=C(CCc1nnc2n(CCc3ccccc3)c(=O)c3ccccc3n12)NCCCN1CCCCC1
→ -13%	.	.	.	1%	.	-1%	7%
CCN(CC)C(=O)CN1C(=O)C2(OCC(C)(c3ccccc3)CO2)c2ccccc21 (stereo not given)
→ .	-6.9%	?	?	-45%	?	23%	-4%
C=CCOc1cccc(C2C(C(=O)c3ccco3)=C(O)C(=O)N2Cc2cccnc2)c1 (stereo not given)
→ 26%	.	.	-4%[46.1 µM]	?	19%	1%	-1%
O=C(O)C(NC(=O)c1ccccc1)=C(Cl)Cl
→ 6%	.	.	1%	.	4%	.	-13%
Cc1cc(/C=C2\SC(N)=NC2=O)c(C)n1-c1ccc(F)cc1
→ 27%	.	.	-30%[46.1 µM]	-1%	1%	0%	-8%
COc1ccc(C(=O)N2CCC3(CC2)NCCc2[nH]cnc23)cc1
→ -14%	.	.	.	1%	.	0%	15%
CCc1ccc(NC(=O)C(=O)NCC(c2ccc3c(c2)OCO3)N2CCN(C)CC2)cc1 (stereo not given)
→ -13%	-1.0%	-17%	.	.	?	.	.
Cn1c(SCC(=O)NC(=O)c2cccc([N+](=O)[O-])c2)nnc1-c1ccc(F)cc1
→ -12%	-7.2%	-9%	-4%	19%	4%	6%	1%
COc1ccc(Cl)cc1C(=O)NNC(=O)c1ccncc1
→ 12%	.	.	.	-6%	.	4%	6%
O=C(NO)c1cc(OCC(F)(F)F)ccc1OCC(F)(F)F
→ 6%	3.9%	-7%	-1%	-4%	-17%	10%	20%
CC(=O)C1(O)CCC2C3CCC4=C(Cl)C(=O)CCC4(C)C3CCC21C (stereo not given)
→ ?	.	.	-8%[46.1 µM]	.	0%[46.1 µM]	.	0%
CC1CC(C)CN(S(=O)(=O)c2ccc(C(=O)N3CCN(c4ccccc4)CC3)cc2)C1 (stereo not given)
→ .	-8.0%	6%	?	-46%	?	1%	13%
O=C(CSc1nccc(=O)[nH]1)Nc1ccc2c(c1)OCCO2
→ 44%[activator]	.	.	?	.	25%	1%	3%
Cc1ccc2c(c1)C1CN(C)CCC1N2C(=O)c1ccc(Br)o1 (stereo not given)
→ 0%	-1.7%	3%	10%	-3%	9%	8%	-7%
COc1ccc(S(=O)(=O)N2CCCCC2C(=O)O)cc1OC (stereo not given)
→ 6%	4.7%	-1%	14%	5%	26%	0%	1%
O=C1CC(=O)N(Cc2ccccc2)C(=S)N1
→ -4%	.	.	-8%[46.1 µM]	22%	10%[46.1 µM]	0%	-7%
CCc1nc(N2CCN(C(=O)c3ccco3)CC2)c2oc3ccccc3c2n1
→ -25%	-5.3%	3%	?	-112%	?	-5%	?
Cc1cc2c(cc1NC(=O)c1ccc(C(C)(C)C)cc1)n(C)c(=O)c(=O)n2C
→ -3%	-3.0%	-9%	.	.	16%[46.1 µM]	.	.
N#C/C(=C\c1cccs1)Sc1nc2ccccc2s1
→ 20%	-1.6%	2%	?	-39%	1%	-10%	7%
CCOc1ccc(N(C)C(=O)CCc2nnc3ccc(N4CCC5(CC4)OCCO5)nn23)cc1
→ -12%	.	.	18%[46.1 µM]	-4%	0%[46.1 µM]	11%	0%
COc1ccc(CN2CCN(C(=O)c3cccc4ccccc34)CC2)cc1OC
→ -21%	.	.	.	4%	.	10%	2%
Cc1ccc(N2CCN(C(=O)c3cc(C(=O)c4ccccc4C)c[nH]3)CC2)c(C)c1
→ -23%	.	.	.	7%	.	-1%	33%

Next part
Below each compound: 2A StopGo	Cruzain Triton	Cruzain inh noDet	Marburg entry inh	NS1 function inh	LASV entry inh	SARS PLpro yeast	RE007 growth inh
CCOC(=O)c1ccc(NC(=O)Cn2ccc([N+](=O)[O-])n2)cc1
→ -19%	.	.	.	-1%	.	-1%	3%
CCn1nc(C)c(CNC(=O)C2CCC(=O)N(CCc3ccc(Cl)cc3)C2)c1C (stereo not given)
→ -7%	.	.	.	-7%	.	2%	1%
CC(=O)Nc1ccc(NS(=O)(=O)c2cc(Cl)sc2Cl)cc1
→ -9%	.	.	3%[46.1 µM]	4%	3%[46.1 µM]	-1%	-7%
Cc1ccc(CN2CCN(CC(=O)NCc3ccccc3)CC2)cc1
→ -8%	.	.	-11%[46.1 µM]	0%	0%[46.1 µM]	0%	-18%
Cc1cc(C)c2nc(N3CCC(C(=O)NCC4CCCO4)CC3)sc2c1 (stereo not given)
→ -16%	.	.	.	-10%	.	18%	5%
CCCn1cnc2c(sc3nc4c(cc32)CSC(C)(C)C4)c1=O
→ 63%[activator]	-6.0%	-8%	?	2%	-24%	-2%	5%
O=C(O)CC(c1ccccc1)n1cnnn1 (stereo not given)
→ 19%	3.7%	-3%	-2%	-1%	-6%	-1%	20%
CC1(C)Oc2c(ccc(O)c2CN2CCOCC2)C2=C1CCCC2
→ -18%	.	.	-2%	.	-22%	.	-16%
Cc1ccsc1/C=N/NC(=O)c1cccs1
→ 89%[activator]	-6.9%	3%	8%	-5%	?	-22%	-16%
COc1ccc([C@@H]2[C@@H]3C(=O)N(C(C)(C)C)C(=O)[C@@H]3[C@]3(Cc4ccc(Cl)cc4)C(=O)N(c4cccc(Br)c4)C(=O)N23)cc1
→ -19%	.	.	.	5%	.	6%	-4%
COc1ccc(NC(=O)COC(=O)c2ccc(S(=O)(=O)N3CCCCCC3)cc2)c(OC)c1
→ -13%	.	.	11%	.	17%	2%	12%
O=C1CN(C(=O)N[C@@H](Cc2ccccc2)C(=O)N[C@H](C(=O)O)c2ccccc2)c2ccccc2N1
→ -7%	.	.	-2%[46.1 µM]	14%	0%[46.1 µM]	-3%	16%
CCc1ccccc1NC(=O)CSc1nnc([C@H](CCSC)NC(=O)OC(C)(C)C)o1
→ ?	-6.7%	6%	-12%	-1%	-17%	6%	27%
c1ccc(-c2[nH]ncc2CN2CCc3ccccc3C2)cc1
→ -4%	.	.	-19%	4%	?	1%	-8%
COc1ccc(CCn2c(N)cc(=O)[nH]c2=O)cc1OC
→ 4%	.	.	17%	4%	-1%	0%	12%
COC(C(=O)NC1CC1)c1ccccc1 (stereo not given)
→ -7%	0.2%	1%	0%	10%	-22%	10%	-5%
Cc1ccc(S(=O)(=O)N2CCN(C(=O)c3cc(=O)c4ccccc4o3)CC2)cc1
→ -21%	.	.	3%	.	26%	0%	57%
Cc1cc(N(C(=O)c2ccco2)C(C(=O)NC2CCCCC2)c2ccccc2)ccc1-n1cnnn1 (stereo not given)
→ -3%	1.5%	?	-4%&-17%	-15%	-25%	-2%	1%
COc1ccc2c(c1)CCc1sc(NC(=O)c3ccc(Cl)cc3)nc1-2
→ ?	-7.9%	?	-20%[46.1 µM]	.	-6%[46.1 µM]	.	.
CCN(/N=C/c1ccccc1)c1cc(=O)n(C)c(=O)[nH]1
→ -25%	-6.2%	-2%	?	6%	6%	9%	.
CC(C)CNc1nc(NC(C)(C)C)nc(Oc2ccc(=O)n(-c3ccccc3)n2)n1
→ -22%	-7.7%	10%	-29%[46.1 µM]	.	-9%[46.1 µM]	.	.
CCOC(=O)c1cc(C)nc(S(C)(=O)=O)c1C#N
→ 35µM*	.	.	?	0%	-10%	0%	1%
COC(=O)CC(NC(=O)CN1CCN(c2ccc(F)cc2)CC1)c1cccc(F)c1 (stereo not given)
→ -4%	.	.	-12%[46.1 µM]	-9%	-4%[46.1 µM]	10%	-3%
COc1ccc(OCCN(C)CC(=O)Nc2ccccc2SC)cc1
→ -12%	.	.	3%[46.1 µM]	-17%	1%	0%	6%
O=C(COc1ccccc1Cl)N1CCN(c2ccc([N+](=O)[O-])c(N3CCCCC3)c2)CC1
→ .	-5.7%	-17%	?	?	-11%	9%	3%
O=C(COc1ccc(Br)cc1)NCCNC(=O)c1ccncc1
→ -19%	.	.	0%	-2%	-14%	?	-12%
Cc1cccc(CS(=O)(=O)Cc2ccc(C(=O)NCc3ccc(F)cc3)o2)c1
→ -6%	0.7%	-10%	.	.	?	.	.
O=C(NCCS(=O)(=O)N1CCCC1)c1ccccc1
→ -5%	.	.	0%[46.1 µM]	.	-1%	-6%	-2%
COc1ccc(N2CCN(C(=O)COC(=O)c3cccc(OC)c3O)CC2)cc1
→ 24%	.	.	14%[46.1 µM]	.	15%[46.1 µM]	-10%	-12%
COC(=O)c1ccc(CSC(=N)N)o1
→ ?	.	.	?	1%	?	-1%	-1%
O=C(CCSc1nc(-c2ccco2)cc(C(F)(F)F)n1)NCCc1ccccc1
→ -5%	-6.2%	?	?	-14%	?	-2%	34%
CCc1ccccc1NC(=O)Cn1nnc(C(=O)NCc2cccc(OC)c2)c1N
→ -12%&27%	-0.8%	-21%	.	-5%	0%[46.1 µM]	-10%	-6%
